HPGD inh = inhibitors of human 15-hydroxyprostaglandin dehydrogenase (HPGD); actives 4.3% (n = 150,000); P15428; Potency, µM, for the others: top-dose activity change, negative = inhibition, most hits filed as inhibitors; purified HPGD, NADH fluorescence kinetic, PGE2 substrate; AID 894; active = well fitted inhibition curve with a large enough effect (not every such curve was filed as active); inconclusive = small, poorly fitted or top-dose-only effect, or another doubt; inactive = no such curve, though single readings can be large or run the other way;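 note: top concentration of the series not given in the record; plate controls included wells without enzyme; inactives centre near -10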
Target sequence (P15428 whole entry, looked up): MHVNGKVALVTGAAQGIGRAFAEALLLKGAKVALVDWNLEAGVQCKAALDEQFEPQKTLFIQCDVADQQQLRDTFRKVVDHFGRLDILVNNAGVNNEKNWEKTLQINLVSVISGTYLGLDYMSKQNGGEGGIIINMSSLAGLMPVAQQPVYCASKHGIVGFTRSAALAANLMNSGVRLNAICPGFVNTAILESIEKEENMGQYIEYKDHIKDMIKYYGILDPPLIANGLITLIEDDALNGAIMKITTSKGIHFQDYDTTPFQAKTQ
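20 nM HPGD preincubated 15 min at room temperature with compound in 50 mM Tris-HCl pH 8, 0.01% Tween 20. Started with 1 mM NAD+ and 30 uM prostaglandin E2; NADH fluorescence (360/450 nm) read 5 times over 30-s intervals, last minus first.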
* hit, by the source's call; ? = inconclusive; & = joins results of further samples. % is set by controls: 0 for no effect and ±100 for the full control effect; potency is the fitted concentration of half-maximal effect. A portion of the library; count on the stated rates, not on these rows.

SMILES | HPGD inh
CCCCCCSc1nc(O)c(C2OC(=O)c3c2ccc(OC)c3OC)c(=O)n1-c1ccccc1 (stereo unspecified) | -4%
CO[C@]1(NC(=O)[C@H](C(=O)O)c2ccc(O)cc2)C(=O)N2C(C(=O)O)=C(CSc3nnnn3C)CO[C@H]21 | -7%
O=C(COc1ccc(Cl)cc1)N(Cc1ccccc1)c1ccccn1 | -2%
COc1ccc(CNC(=O)c2ccccc2C(=O)O)cc1 | -8%
Cc1cc(/C=C\c2ccc3cc(N(C)C)ccc3[n+]2C)c(C)n1-c1ccccc1 | -4%
Cc1ccc(N2CC(C(=O)Nc3ccccn3)CC2=O)cc1 (stereo unspecified) | 7%
COCCN=C1Sc2nc3c(C)cccc3cc2CN1Cc1ccco1 | 22µM*
Cc1cc(-c2ccco2)n(CC(=O)NCc2ccco2)n1 | -9%
O=C(Nc1cccc(Cl)c1)c1csc(-c2ccccc2)n1 | ?
CCC(C)NC(=O)C1CN(S(=O)(=O)c2ccccc2)CCN1S(=O)(=O)c1ccccc1 (stereo unspecified) | -16%
Cc1c(C(=O)N2CCC(C)CC2)sc2ncnc(N(C)c3ccccc3)c12 | 8.9µM*
CC1Cc2ccccc2N1C(=O)c1ccnc(C(C)(C)C)c1 (stereo unspecified) | -18%
COc1ccc(-c2nc3ccncc3[nH]2)cc1OC | ?
COc1ccc(C(=O)NN(C)c2nc(-c3ccccc3)cc(C)c2S(C)(=O)=O)cc1 | -9%
Cc1ccccc1-c1n[nH]c(=S)n1/N=C/c1c(C)nn(-c2ccccc2)c1C | 3.5µM*
CC(Sc1nnc(C(C)N(C)C)n1-c1ccc(Cl)cc1)C(=O)Nc1ccc2c(c1)OCO2 (stereo unspecified) | -9%
Cc1ccc(S(=O)(=O)CCc2nc3ccccc3s2)cc1 | -3%
COc1ccc(CN2C(=O)CN=C2Nc2ccc(C)cc2C)cc1 | -12%
CCOC(=O)Nc1nnc(-c2cccc(OC)c2)s1 | ?
COc1ccc(C(C)=O)cc1COC(=O)Cn1cnc2ccccc2c1=O | -12%
COc1ccc(-n2nc(N)c3c(=O)oc(N(C)C)nc32)cc1 | -10%
O=C1CN(C(=O)COC(=O)/C=C/c2ccc(OC(F)F)cc2)c2ccccc2N1 | -19%
O=C(NC(c1ccc(Cl)cc1)c1cc(Cl)c2cccnc2c1O)c1cccnc1 (stereo unspecified) | -15%
Cc1ccc(C)c(NC2=NCC(=O)N2C2CCCCC2)c1 | -8%
CN(C)c1oc(COc2ccccc2F)nc1C#N | -13%
COc1ccc(-c2cc3ccccc3n2CC(O)CN2CCOCC2)cc1 (stereo unspecified) | ?
CCOc1ccccc1NC=C1C(=O)OC(C)(C)OC1=O | -24%
O=C(NC1CC1)c1cccc(Nc2ccc(-c3ccc4c(c3)OCCO4)nn2)c1 | 28µM*
Cn1cccc1C(=S)N=P(C1CCCCC1)(N1CCOCC1)N1CCOCC1 | -13%
Oc1ccc(Oc2ccc3c(C(F)(F)F)cc(C(F)(F)F)nc3n2)cc1 | -13%
COc1cc(C(=O)Nc2ccc(NC(=O)c3ccco3)nc2)cc(OC)c1OC | -9%
CCC(O)CNC(=O)NC(=C(Cl)Cl)c1ccc(C)c(F)c1 (stereo unspecified) | -14%
CC1CCCN(C(=O)C(C)Sc2nc(-c3ccccc3)cc(C(F)(F)F)n2)C1 (stereo unspecified) | 16µM*
Cc1ccccc1Oc1ccc(S(=O)(=O)NCCC(=O)O)cc1 | -6%
CCc1ccc2c(c1)c1nnc(NN)nc1n2CC | ?
O=C(NCCN1CCCC1=O)Nc1ccccc1 | 2%
CCc1cccc(CC)c1-n1c(SCC(=O)c2c(N)n(C)c(=O)n(C)c2=O)nnc1-c1cccnc1 | -12%
COC(=O)c1c(N)sc(C(C)=O)c1C | -8%
O=C(Cc1c[nH]c2ccccc12)NCc1ccc(Cl)cc1 | -5%
C=CCNc1ncnc2ccc(Br)cc12 | ?
COc1ccc(CN2CCN(C(=O)c3cccs3)CC2)c(OC)c1OC | -11%
CC(C)(C)NC(=O)Cn1ccc(=N)c2ccccc21 | -12%
CNc1cccc2c1C(=O)c1ccccc1C2=O | -3%
O=C(Cc1cccc2ccccc12)Nc1ccc2oc(-c3ccccc3)nc2c1 | ?
Cc1cc(Cl)ccc1OCC(=O)N1C(C)CCCC1C (stereo unspecified) | -25%
O=C(Nc1ccccc1)C1Cc2ccccc2CN1C(=O)c1ccco1 (stereo unspecified) | -5%
N#CC1=C(SCC(=O)NC23CC4CC(CC(C4)C2)C3)NC(=O)C(C#N)C12CCCCC2 (stereo unspecified) | -22%
O=C1NC2c3ccccc3C(=O)N2c2c1cnn2-c1ccccc1 (stereo unspecified) | -20%
COCc1cc(C)nc(SCC(=O)Nc2ccc(C)c(C)c2)c1C#N | ?
CCCSC1=C(C#N)C(c2cc(OC)ccc2OC)CC(=O)N1 (stereo unspecified) | 22µM*
Cc1ccc(SCC(=O)NC(=O)NCc2ccco2)cc1C | -3%
COc1cc(C=Nc2cccc(C)c2)c(O)c([N+](=O)[O-])c1 | -7%
CN1CCN(c2ccc(C(=O)c3ccccc3)cc2[N+](=O)[O-])CC1 | -8%
C/C=C/c1ccc(OCCCNC2CCCC2)c(OC)c1 | -6%
CCn1c(C(C)NC(=O)c2cccc(C)c2)nc2ccccc21 (stereo unspecified) | -14%
CCOc1ccc(N=C2NC(=O)C(CC(=O)O)S2)cc1 (stereo unspecified) | -11%
O=C(C1CCN(C2CC(=O)N(c3ccc(Cl)cc3)C2=O)CC1)N1CCOCC1 (stereo unspecified) | -9%
OCc1ccnc2c(O)cccc12 | -9%
O=C(/C=C/c1cccc(Cl)c1)NCCN1CCOCC1 | -3%
O=C(OCc1nc2ccccc2[nH]1)C1CCCCC1 | -9%

Additional entries follow.
SMILES | HPGD inh
O=C(CN(CC1CCCO1)S(=O)(=O)c1ccc(S(=O)(=O)NCC2CCCO2)cc1)Nc1ccccc1 (stereo unspecified) | 3%
O=C(CSc1nnc(CCCO)n1-c1ccccc1)Nc1nccs1 | -7%
O=C1c2ccccc2NC(c2ccccn2)N1c1ccccc1F (stereo unspecified) | ?
CSc1ccc(C#N)cc1NC(=O)c1cccc(Cl)c1 | -4%
Cc1cccc(OCC(=O)Nc2ccc(N3CCN(S(C)(=O)=O)CC3)cc2)c1C | -7%
Cc1ncsc1CCOC(=O)c1cccc([N+](=O)[O-])c1 | -6%&-22%
O=C(CNC(=O)C1CCCCC1)NC1=NCCS1 | -14%
Cc1ccc(CSCCNC(=O)CN2C(=O)c3ccccc3S2(=O)=O)cc1 | -11%
COc1ccccc1Cn1c(=O)c2ccccc2n2c(SCc3csc(C)n3)nnc12 | -18%
CC(C)CN(CC(C)C)C1=N/C(=C\c2ccco2)C(=O)N1c1ccccc1 | ?
O=C(Nc1ccc(Cl)cc1C(F)(F)F)c1ccccc1Cl | -15%
O=c1cc(-c2ccccc2)nc2nc(-c3ccccc3)[nH]n12 | -11%
CSc1nc(N(C)NC(=O)c2ccc(F)cc2)c2ccccc2n1 | -1%
CC(C)Cc1n[nH]c(=O)[nH]1 | -12%
Cn1nc(C(F)(F)F)c(C(=O)Nc2ccc(F)cc2F)c1Oc1cccc(Cl)c1 | -12%
CCc1nc(N)c(C#N)c(-c2ccc(F)cc2)c1C | -11%
Cn1cc(-c2nc3ccccc3[nH]2)c2ccccc21 | ?
COCCN1C(=O)N[C@@H](c2cccc(F)c2)C(C(C)=O)=C1C | -3%
O=C(O)CC[C@@H](C(=O)O)N1C(=O)[C@@H]2[C@@H]3CC[C@H](C3)[C@@H]2C1=O | -2%
Cc1cc2cc(CNC(=O)c3ccc4c(c3)OCO4)ccc2n1C | ?
CCOc1ccccc1Nc1nc(-c2sc(NC(=O)c3ccc([N+](=O)[O-])cc3)nc2C)cs1 | -3%
COc1ccccc1NC(=O)Nc1ccc(Br)cn1 | 5%
CCC(CC)C(=O)Nc1nnc(SCC(=O)N2CCN(c3ccccc3OC)CC2)s1 | -12%
CCNc1nc(Oc2ccc(=O)n(C)n2)nc(N2CCOCC2)n1 | -6%
O=C(CCCSc1nc(-c2ccco2)cc(C(F)(F)F)n1)NCc1cccs1 | 18µM*
Cn1nc(C(F)(F)F)c(C(=O)Nc2ccc(C(F)(F)F)cc2)c1Cl | -15%
CCC(=O)Nc1ccc(-c2nc(-c3ccccc3)n(CC(=O)N3CCCCC3)n2)cc1 | -2%
Cc1cc(-c2nnco2)c(C)n1-c1ccccc1 | -26%
CCCCn1c(SCC(=O)Nc2cccc(OC)c2)nc2ccc(N3CCOCC3)cc2c1=O | ?
COc1cc(NC(=O)c2ccco2)c(C(=O)O)cc1OC | -6%
O=C1C(c2[nH]c3ccc(S(=O)(=O)O)cc3c2O)=Nc2ccc(S(=O)(=O)O)cc21 | ?
Cc1cc(C)nc(NS(=O)(=O)c2ccc(NC(=S)NC(=O)CC(C)C)cc2)n1 | -5%
CCCOc1ccc(S(=O)(=O)n2cc(Br)c(=O)[nH]c2=O)cc1 | -13%
COC(=O)[C@@]1(Cc2ccccc2)[C@H]2c3cc(C(=O)N4CCCC4)n(Cc4ccccc4)c3C[C@H]2CN1C(=O)c1ccccc1 | -13%
c1ccc2[nH]cnc2c1 | -2%
Cc1noc(COc2ccc(OCc3nc(C)no3)cc2)n1 | -6%
C=CCN1CC(O)=C(c2ccccc2)C1=N | -22%
O=C(O)c1cc(-c2cccs2)nc2cc3c(cc12)OCCO3 | ?
O=C(/C=C/c1ccc([N+](=O)[O-])cc1)NCc1cccnc1 | -11%
CCN(CC(=O)Nc1ccc2c(c1)OCCO2)c1nc(-c2cccnc2)nc2ccccc12 | -13%
Cc1ccc(-n2ncc3c(NCc4ccco4)ncnc32)c(C)c1 | 3.5µM*
c1ccc(-c2cn3c(n2)CCc2ccc4cccnc4c2-3)cc1 | ?
O=c1c(-c2ccco2)[n+]([O-])c2ccccc2n1OCc1ccccc1F | -7%
CCOC(=O)CSC(CC)C(=O)Nc1nnc(CC)s1 (stereo unspecified) | -7%
CCOc1ccc(Oc2c(/C=N/NC(C)=O)c(C)nn2-c2ccccc2)cc1 | -8%
CCN(CC)CCCNC(=O)c1cn(C)c2ccc(S(=O)(=O)N(C)C)cc2c1=O | -1%
Cc1c(Cl)c(C(=O)NNC(=S)NCc2ccco2)nn1C | -3%
OCCN1CCN(C(c2cccs2)c2ccc3cccnc3c2O)CC1 (stereo unspecified) | 3.5µM*
COc1ccc(NC(=O)CSc2nc(C)cc(C)n2)cc1 | 0%
O=C(c1ccco1)N1CCN(c2ncnc3scc(-c4ccc(F)cc4)c23)CC1 | -1%
CCOC(=O)N1CCC2(CC1)C(C#N)=C(N)Oc1c2c(C)nn1-c1cccc(Cl)c1 | -11%
O=C(O)CCC(NS(=O)(=O)c1ccc(-c2ccccc2)cc1)C(=O)O (stereo unspecified) | -16%
C/C(=N/NC(=O)CNC(=O)c1ccccn1)c1ccccc1 | ?
COc1ccccc1-c1cc(=O)c2cccc(OC)c2o1 | ?
Cc1cccc(C(=O)N[C@H](C(=O)OCc2cc(=O)n3c(n2)sc2ccccc23)C(C)C)c1 | ?
CCOC(=O)N1CCN(S(=O)(=O)c2ccc(OCC(=O)OC)c(C)c2)CC1 | -10%
O=C(/C=C/c1ccccc1Cl)N(Cc1ccccc1)C1CCS(=O)(=O)C1 (stereo unspecified) | -8%
CCOC(=O)N1CCN(CC(=O)Nc2ccc(OC)cc2)CC1 | -3%
CN(C(=O)c1ccncc1)c1ccccc1 | -2%
Cc1cccc(C)c1OCc1n[nH]c(=S)o1 | -3%

Remaining list, next part
SMILES | HPGD inh
CCOC(=O)C(CC)n1cnc2c(nnn2-c2ccc(C)cc2)c1=O (stereo unspecified) | -9%
Cc1ccc(C)c(NC(=O)CN(C)C(=O)COc2ncnc3sccc23)c1 | -7%
O=C(N/N=C/c1cc([N+](=O)[O-])ccc1O)c1ccc2c(c1)OCCO2 | -13%
CCn1nc([N+](=O)[O-])c(C(C#N)c2nc3ccccc3n2C)c(Cl)c1=O (stereo unspecified) | -9%
c1ccc(-c2nnc(-c3ccccn3)nc2NC2CCCCC2)cc1 | -5%
COc1ccccc1/C=N/n1c(N)c(S(=O)(=O)c2cccs2)c2nc3ccccc3nc21 | ?
O=C(Nc1cccc(OC(=O)c2ccco2)c1)c1ccco1 | -5%
Cn1c(SCC(=O)N=Nc2c(O)[nH]c3ccccc23)nc2ccccc21 | -15%

Part of the list above, set out differently.
mol	HPGD inh
O=C(O)CCC(NS(=O)(=O)c1ccc(-c2ccccc2)cc1)C(=O)O (stereo unspecified)	-16%
C/C(=N/NC(=O)CNC(=O)c1ccccn1)c1ccccc1	?
COc1ccccc1-c1cc(=O)c2cccc(OC)c2o1	?
Cc1cccc(C(=O)N[C@H](C(=O)OCc2cc(=O)n3c(n2)sc2ccccc23)C(C)C)c1	?
CCOC(=O)N1CCN(S(=O)(=O)c2ccc(OCC(=O)OC)c(C)c2)CC1	-10%
O=C(/C=C/c1ccccc1Cl)N(Cc1ccccc1)C1CCS(=O)(=O)C1 (stereo unspecified)	-8%
CCOC(=O)N1CCN(CC(=O)Nc2ccc(OC)cc2)CC1	-3%
CN(C(=O)c1ccncc1)c1ccccc1	-2%
Cc1cccc(C)c1OCc1n[nH]c(=S)o1	-3%
CCOC(=O)C(CC)n1cnc2c(nnn2-c2ccc(C)cc2)c1=O (stereo unspecified)	-9%
Cc1ccc(C)c(NC(=O)CN(C)C(=O)COc2ncnc3sccc23)c1	-7%
O=C(N/N=C/c1cc([N+](=O)[O-])ccc1O)c1ccc2c(c1)OCCO2	-13%
CCn1nc([N+](=O)[O-])c(C(C#N)c2nc3ccccc3n2C)c(Cl)c1=O (stereo unspecified)	-9%
c1ccc(-c2nnc(-c3ccccn3)nc2NC2CCCCC2)cc1	-5%
COc1ccccc1/C=N/n1c(N)c(S(=O)(=O)c2cccs2)c2nc3ccccc3nc21	?
O=C(Nc1cccc(OC(=O)c2ccco2)c1)c1ccco1	-5%

Compound activity: PubChem BioAssay, National Center for Advancing Translational Sciences (NCATS)
